Screening results from PubChem.
Ab BasE inh: BasE siderophore enzyme inhibitors, primary screen, biochemical, Acinetobacter baumannii ATCC 17978, fluorescence polarization; AID 485350, 2010; actives 0.1% (n = 84,000); inhibition, % (no concentration beside the values); purified BasE, fluorescence polarization binding displacement;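 active means both replicates above 25% with normal brightness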;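 further: 0% = negative plate control signal and 100% = positive plate control signal; stock transfer was 100 nL into about 30 µL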
LANA-nucl inh: inhibitors of KSHV LANA-nucleosome binding, primary screen, biochemical, fluorescence polarization, FITC-LANA1-23, chicken nucleosomes. FITC-LANA1-23 / chicken nucleosome fluorescence polarization; hits give low values. z-score (test concentration not listed). actives 0.3% (n = 51,000);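 active means both repeat wells score below -2 in polarization z-score versus plate sample wells, excluding overly bright wells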;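 further: 100 nL library stock added to about 30 µL; numbers are from one replicate; some results filed as inactive read as strong as hits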
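test system = FITC-LANA peptide and chicken nucleosomes | amount = 240 nM purified chicken nucleosomes (480 nM peptide binding sites), final | reagent = 50 nM FITC-LANA1-23 probe | medium = TEN-BT buffer, pH 7.5 | doses = single compound addition by pin transfer, 100 nL per well | timing = 10–45 min, room temperature | detection = fluorescence polarization | repeats = duplicate plates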
Starred values were filed as active, the others as inactive; · = no result given; & = joins results of further samples.

The opening 2 records, to show the layout:
SMILES	Ab BasE inh	LANA-nucl inh
Clc1ccccc1OCCn1cc(/C=N/n2cnnc2)c2ccccc21	0.1	0.11
COCCNC(=O)Cn1nc(C(F)(F)F)cc1C	0.9	-0.1

This part in full (from the top)
SMILES	Ab BasE inh	LANA-nucl inh
Clc1ccccc1OCCn1cc(/C=N/n2cnnc2)c2ccccc21	0.1	0.11
COCCNC(=O)Cn1nc(C(F)(F)F)cc1C	0.9	-0.1
O=C(OCC(=O)N1CCCCCC1)c1n[nH]c(=O)c2ccccc12	0.1	·
O=C1CNCCN1C1CCCCC1	-0.4	0.31
O=C(N/N=C1\CC(=O)c2ccccc21)c1ccc(CSc2nc3ccccc3o2)cc1	-1.2	·
CCCc1cc(=O)oc2c(C)c3oc(C)c(C)c3cc12	0.6	·
NC(=S)N(c1ccccc1)c1ccccc1	-2.1	2
CCOC(=O)CC1=Nn2c(nnc2C2CCCCC2)SC1	-0.7	·
Nc1ccc(C(=O)NN=C2C3CC4CC2CC(O)(C4)C3)cc1	1.7	-0.23
CN(C)c1ccc(/C=N/NC(=O)CN2CC(c3ccccc3)CC2=O)cc1 (configuration not stated)	-2.6	-0.055

Exported with each value named: part of the list above.
O=C(N/N=C1\CC(=O)c2ccccc21)c1ccc(CSc2nc3ccccc3o2)cc1
  Ab BasE inh: -1.2
  LANA-nucl inh: ·
CCCc1cc(=O)oc2c(C)c3oc(C)c(C)c3cc12
  Ab BasE inh: 0.6
  LANA-nucl inh: ·
NC(=S)N(c1ccccc1)c1ccccc1
  Ab BasE inh: -2.1
  LANA-nucl inh: 2
CCOC(=O)CC1=Nn2c(nnc2C2CCCCC2)SC1
  Ab BasE inh: -0.7
  LANA-nucl inh: ·

(list continues)
SMILES	Ab BasE inh	LANA-nucl inh
Cc1ccc(C)c(SCC(=O)NC(=O)NC2CCCC2)c1	-3.9	·
FC(F)(F)c1cc(Cl)c2nnc(C(F)(F)Cl)n2c1	·	-0.72
O=C(CCn1ccnc1)OCc1ccccc1	0.6	·
O=C(/C=C1\SC(=O)NC1=O)Nc1ccc(F)cc1	-0.9	-0.2
Cc1cc(-c2ccc(S(=O)(=O)NC3CCCc4ccccc43)s2)n[nH]1 (configuration not stated)	-5.6	0.15
CN1CCN(c2ccc(NS(=O)(=O)c3cccc4nonc34)cc2)CC1	1.8	·
COc1ccc(S(=O)(=O)N(C)C2(C)CCS(=O)(=O)C2)cc1C (configuration not stated)	1.2	·
N=c1c2c(-c3ccccc3)c(-c3ccccc3)oc2ncn1CCCO	-1.5	-0.49
CCc1ccc(NC(=O)CSc2nnc(CNC(=O)c3ccc4c(c3)OCO4)n2C)cc1	4.2	-0.48
CCNC(=O)c1ccc(-n2nc(C(F)(F)F)c3c2CCCC3)cc1	2.9	0.51
Cc1ccccc1OCc1nc(-c2ccc(NC(=O)c3ccc(Br)o3)cc2)no1	2.6	0.26
Cc1ccc(C)c(C(=O)COC(=O)c2ccc[nH]c2=O)c1	0.9	·
COc1cccc(-c2nc(-c3cc(C)n(C4CC4)c3C)cs2)c1OC	3.0	·
O=c1c(CN2CCN(Cc3ccccc3)CC2)coc2ccccc12	4.4	-0.15
CC(C)=C1N=C(c2ccc(Cl)cc2)OC1=O	-1.2	-1.7
NC1=NC(=O)C(CC(=O)Nc2cccc(C(=O)NCCc3ccc(S(N)(=O)=O)cc3)c2)S1 (configuration not stated)	0.8	·
CCCn1c(SCC(=O)c2cccs2)n[nH]c1=O	2.7	·
Oc1cc2c(cc1CN1CCc3ccccc3C1)CCC2	-5.2	·
Cc1nn(-c2ccccc2)c(C)c1CN(C)CC(=O)Nc1ccc(S(=O)(=O)N(C)C)cc1	1.0	·
COc1ccc(CCNc2nnc(Cc3ccc(Cl)cc3)c(=O)[nH]2)cc1OC	-0.5	0.23
CCn1c(C(=O)O)c(CNCc2ccc3c(c2)OCO3)c2ccccc21	-2.2	1.4
CC(Cc1ccco1)NC(=O)Cn1c(=O)oc2ccccc21 (configuration not stated)	0.7	2.3
Cc1ccc(Cn2cc(C(=O)Nc3cccnc3)ccc2=O)cc1	-2.2	-0.67
Cc1cc2n(n1)CCCN2CC(=O)Nc1cccc(Cl)c1C	-4.8	2
c1ccn(-c2ccc(-c3ccc(-n4cccc4)cc3)cc2)c1	1.6	-0.6
O=C(c1ccc(NS(=O)C23CC4CC(CC(C4)C2)C3)cc1)N1CCCC1 (configuration not stated)	0.0	-0.57
Cc1cc(C(=O)OCC(=O)N2c3ccccc3Sc3ccccc32)c2ccccc2n1	-2.7	·
c1ccc(-c2noc(CN3CCCC3c3cccs3)n2)cc1 (configuration not stated)	-1.4	·
Fc1ccccc1CNc1ncnc2c1oc1ccccc12	1.4	·
CCOC(=O)N1CCN(C(=O)c2ccc3c(c2)N(Cc2ccccc2)C(=O)c2ccccc2S3=O)CC1 (configuration not stated)	-0.6	-0.71
CCn1c(O)c(/C=c2/c(C)c(C#N)c3nc4ccccc4n3c2=O)n(CC)c1=S	8.6	·
CN(C)c1nc(SCCOC(=O)COc2ccc(Cl)cc2Cl)nc(N(C)C)n1	-1.3	·
COC(=O)C1=C(NC(=O)c2ccc(S(=O)(=O)N3CCOCC3)cc2)CCS1	4.4	·
Cc1noc(C)c1-c1nc(COc2ccc(/C=C(/C#N)S(C)(=O)=O)cc2)no1	2.9	·
CC(=O)N1CCC(N(C(=O)NC2CCCC2)C(C)C)CC1	-4.1	1.7
C=CCn1c(SC)nc2c(c1=O)C1(CCCCC1)Cc1ccccc1-2	2.6	·
Cc1ccc(OCCNC(=O)c2ccc(NC(=O)CC#N)cc2)cc1	-9.0	·
CCNc1cccc2c1C(=O)N(C)C2=O	7.0	-10
CC(O)C(=O)Nc1cc(Cl)cc(Cl)c1 (configuration not stated)	-0.1	1.6
Cc1ccc(-c2ccc(OCc3c(C)noc3C)c(C)c2)cc1	3.5	·
CCOC(=O)c1c(CSc2nnc(CN3CCCCCC3=O)n2CC)nc2ccccc2c1C	1.0	·
O=C1CN(C(=O)/C=C/c2ccc(Br)cc2)CCN1	0.2	·
c1cncc(-c2nc(NCc3ccco3)c3ccccc3n2)c1	-2.9	0.64
CN1CCCN(C(=O)c2cnccn2)c2nc3ccccc3nc21	-0.2	·
CSc1ccc(S(=O)(=O)N(C)C)cc1	1.6	-1.8
CCn1c(-c2ccccc2)c(C2=NNC(=NC(C)COC)SC2)c2ccccc21 (configuration not stated)	3.4	·
CC1=CC(=C(C#N)C#N)C=C(C)N1Cc1ccncc1	-2.3	·
O=C(O)c1cnn2c1ncc1c3ccccc3ccc12	2.1	0.32
CCc1ccccc1NC(=S)Nc1ccc(Oc2ccc(Cl)cc2)cc1	1.0	·
Cc1cc(Br)ccc1NC(=O)CN(C)C(=O)C1=COCCO1	0.5	·

Next part (6 carried over from the part before).
SMILES	Ab BasE inh	LANA-nucl inh
CSc1ccc(S(=O)(=O)N(C)C)cc1	1.6	-1.8
CCn1c(-c2ccccc2)c(C2=NNC(=NC(C)COC)SC2)c2ccccc21 (configuration not stated)	3.4	·
CC1=CC(=C(C#N)C#N)C=C(C)N1Cc1ccncc1	-2.3	·
O=C(O)c1cnn2c1ncc1c3ccccc3ccc12	2.1	0.32
CCc1ccccc1NC(=S)Nc1ccc(Oc2ccc(Cl)cc2)cc1	1.0	·
Cc1cc(Br)ccc1NC(=O)CN(C)C(=O)C1=COCCO1	0.5	·
CC(=O)N1N=C(COc2ccc(Cl)cc2Cl)OC1c1ccco1 (configuration not stated)	1.2	-1.6
O=C(O)CC1=C(c2cccs2)CCC1=O	-1.0	-0.011
CN(C)C(=S)c1ccc2ccccc2n1	1.2	0.015
CCn1cc(C(=O)NC2CCCCCC2)c(=O)c2cc(F)c(N3CCN(C(C)=O)CC3)cc21	-2.5	·
Cc1onc(-c2c(Cl)cccc2Cl)c1C(=O)N=S(C)(C)=O	-1.8	·
Cc1ccc2nc(SC(C)C(=O)Nc3ccc(C#N)cc3)[nH]c2c1 (configuration not stated)	2.1	·
CC(C)N(C(=O)Nc1ccccc1F)c1ccccc1	2.4	0.27
CC(C)CC(C(=O)O)n1c(O)c(C2=c3ccccc3=NC2=O)sc1=S (configuration not stated)	-0.7	0.52
O=C(CSc1ccccc1F)Nc1nc(-c2cccs2)cs1	1.9	·
Cc1ccc(CN2CCc3ccccc3C2)o1	3.5	0.24
CCC(C)N(CN1C(=S)SC2=NC(=O)CCCN21)C(C)CC (configuration not stated)	2.7	-1
CNC(=O)c1ccc2c(c1)OCCO2	0.7	·
CCOC(=O)n1ccn(C)c1=S	-3.0&2.0	-0.34&0.5
CCC(CO)NCC(=O)Nc1ccc(C)cc1F (configuration not stated)	-1.1	·
COc1cc(-c2nnc(COC(=O)C3=NN(c4cc(C)ccc4C)C(=O)CC3)o2)cc(OC)c1OC	-1.6	·
Cc1cc(C)c2c(N)c(-c3nnc(SCc4ccc(Cl)cc4)n3C)sc2n1	-2.4	·
CC(C)NC(=S)N1CCN(Cc2ccc3c(c2)OCO3)CC1	-0.6	·
O=C(CSc1ccccc1)Nc1nnc(C2CC2)s1	-1.4	·
CC(=O)NC1C(=O)N=C(SCC(=O)NC(C)c2ccccc2)NC1=O (configuration not stated)	0.6	-0.2
Nc1ncnc2c1nc(Br)n2C1O[C@H]2COP(=O)(O)O[C@@H]2[C@@H]1O (some centres not stated)	0.4	0.024
Cc1csc(N(C(=O)Cc2csc(-c3ccccc3)n2)c2ccccc2)n1	0.0	·
Cn1cccc1C(C(=O)NC1CCCCC1)N(C(=O)Cn1nnc2ccccc21)c1cnc2ccccc2c1 (configuration not stated)	5.2	-0.36
CCn1c(SCc2nc3ccccc3c(=O)[nH]2)nnc1-c1ccccc1F	-3.3	0.44
CSc1ccc(C2NC(=O)c3ccccc3N2)cc1 (configuration not stated)	4.0	-0.16
O=c1cc(NCCCO)c2ccccc2o1	0.2	1.2
O=C(Nc1ccc(C(F)(F)F)cc1)N1CCC(C(F)(F)F)CC1	-0.9	·
CCCNC(=O)C1CN(S(=O)(=O)c2ccc(Cl)s2)c2ccccc2O1 (configuration not stated)	-1.2	·
CCCCn1nnnc1COC(=O)c1c2c(nc3ccccc13)CCCCC2	0.4	·
Cc1ccc(S(=O)(=O)CC(O)CN2CCCC2=O)cc1 (configuration not stated)	3.0	-0.28
Clc1ccc(-c2cn3c4ccccc4nc3n2CCCNC2CCCCC2)cc1	-9.3	·
NC(=O)c1c(NC(=O)c2ccc3c(c2)OCCO3)sc2c1CCC2	-0.9	1.6
COc1ccc(NC(=O)c2c(NCc3ccc(C)o3)sc3c2CCCC3)cc1	1.4	-0.033
C=CCn1c(CNC(=O)c2ccco2)nnc1SCC(=O)Nc1cccc(Br)c1	-3.5	0.52
CCOc1ccccc1NC(=O)COC(=O)Cc1ccc(OC)cc1	-1.0	·
CCOC(=O)c1cc(C(O)(C(F)(F)F)C(F)(F)F)c(N)o1	0.0	·
CC(c1ccco1)N(Cc1ccco1)C(=O)Nc1ccccc1 (configuration not stated)	1.1	-0.37
O=C(/C=C/c1ccc2c(c1)OCO2)Oc1ccc2c(c1)OCO2	-2.8	·
CN(CC(=O)Nc1ccc(N2CCOCC2)cc1)S(=O)(=O)c1ccc2c(c1)OCCO2	3.8	·
O=C(CSc1n[nH]c(=O)n1C1Cc2ccccc2C1)c1ccc2c(c1)OCCO2	-0.4	-0.51
O=c1cc(CSc2ncccn2)nc2ccc(Br)cn12	0.0	·
CCCC(=O)NC1CCS(=O)(=O)C1 (configuration not stated)	1.6	-1
Cn1c(C(=O)Nc2ccc3c(c2)NC(=O)CC3)cc(=O)n(C)c1=O	-0.4	-0.82
CN(C)S(=O)(=O)c1ccc(NCC(=O)N2CCN(c3ccccc3)CC2)cc1	-1.3	·
Cc1ccc(C(=O)NNc2nc(Nc3ccccc3)nc(N3CCCC3)n2)cc1	0.6	-0.0065
Cn1c(=O)c2c(ncn2CC(O)CO)n(C)c1=O (configuration not stated)	-3.1&-2.3	0.21&-0.54&0.11
Cc1ccc(/C(C#N)=C\c2ccco2)cc1	-0.4	0.13
O=C(CCN1C(=O)CSC1=O)Nc1ccccc1	-0.8	-0.94
O=C(Cc1ccccc1)ON=C1C=CC(=NOC(=O)c2ccco2)C=C1	2.8	0.6
NC(=O)N/N=C1\c2ccccc2-c2c(C(N)=O)cccc21	4.5	0.61
COC(=O)c1sc2c(C)cc(Cl)c(C)c2c1C(=O)Oc1ccccc1	0.2	·
Continuation:
SMILES	Ab BasE inh	LANA-nucl inh
CCC(C)NC(=O)c1c(C)nn(CC(C)C)c1Cl (configuration not stated)	-1.3	·
CCC(C)NC(=O)CCN1C(=O)c2ccccc2C1=O (configuration not stated)	-2.0	2.8
O=C1c2ccccc2CN1C(CO)c1ccccc1 (configuration not stated)	·	0.7
CCN(CC)C(=O)Cn1cc(/C=C2\C(=O)NC(=O)N(CC)C2=O)c2ccccc21	1.3	-2.7*
OCC#CCSc1nc2ccccc2o1	-3.6	2.2
COC(=O)c1ccc(CSc2nnc(C3CC3)n2Cc2ccccc2)o1	0.5	·
CNC(=O)c1cc(Cl)ccn1	-3.0	·
CS(=O)(=O)OCCCCOS(C)(=O)=O	-1.6	0.76&-0.5
CN(C)C(=S)c1nc2ccccc2s1	1.1	0.44
O=C(CN1CCN(c2ccc(C(F)(F)F)cn2)CC1)N1CCCC1c1ccc2c(c1)OCCCO2 (configuration not stated)	1.0	·
CC(C)COC(=O)c1cn(C2CCCCC2)c2ccccc2c1=O	1.0	·
Cn1nc(Nc2ccccc2N)cc1-c1ccccc1	-1.1	·
COc1ccc(OCC(=O)NCCO)cc1	0.0	2

The list is partial (hit frequency here may not be typical).
